D2 PAM – potentiates the human D2 dopamine receptor allosterically; P14416; DiscoveRx D2 beta-arrestin cells, luminescence, 90 min; 100% = 57 uM dopamine signal; potentiation, % (concentration not given with the values); hit rate 0.23% among 360,000; active = potentiation of 50% or more; inconclusive = 30% to 50%; inactive = 30% or less;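 note: compound concentration not given in the record; tested on top of an EC20 dose of dopamine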
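PathHunter D2 cells, attached overnight at 37 deg C, received compound in DMSO plus dopamine at EC20 (50 nM final) for 90 min at 37 deg C. Beta-arrestin recruitment was read as luminescence after 1 h with detection reagent at ambient temperature.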
PINK1 expr mod – modulators of PINK1 expression; AID 624263; hit rate 0.2% among 410,000; PINK1 immunofluorescence, high-content cytometry, 24 h; Potency, µM (series often up to 76.6 µM), without a hit: at the top dose activation (PINK1 increase), most hits filed as activators; active = well fitted activation curve with a large enough effect; inconclusive = small, poorly fitted or top-dose-only effect; inactive = flat fitted curve, though single readings scatter; cell line not stated here;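 note: potency is the fitted concentration of half-maximal effect; % of control where 0% means no effect; nearly all actives have a fitted effect of over 65% in size; a mitochondrial uncoupler was the plate control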
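Readout is PINK1 immunofluorescence, quantified alongside mitochondrial, cell and nuclear markers by laser-scanning microplate cytometry. Cells from a stable line were exposed to compound titrations (5 concentrations) for 24 hours, with CCCP controls.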
CtBP-E1A inh – blocks the CtBP interaction with E1A; AlphaScreen GST-E1A/His-CtBP binding, 1536-well; hits give low values; control for the full effect not named in the record; hit rate 0.49% among 340,000; activity change, % (no concentration beside the values); in the data active means activity change below about -65%; inconclusive means about -30% to -65%; inactive means above about -30%; note: % is set by controls: 0 for no effect and ±100 for the full control effect; compound concentration not given in the record
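Protein mix (5X: 125 nM each GST-E1A, His-CtBP) was incubated with pinned compound 2 h at 37 deg C in dark, in 50 mM Tris pH 8.0 buffer with 300 mM NaCl. Glutathione donor and nickel acceptor beads followed; AlphaScreen signal read after 1 h.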
Six1-Eya2 blk – blocks human Six1 binding to Eya2 | Q15475+O00167 | AlphaScreen GST-Six1/His-Eya2 binding, biochemical; hits give low values; control for the full effect not named in the record | activity change, % (concentration not given with the values) | hit rate 0.56% among 360,000 | AID 651725; in the data active = activity change below about -65%; inconclusive = about -30% to -65%; inactive = above about -30%; note: % is set by controls: 0 for no effect and ±100 for the full control effect
Target sequence (O00167 whole entry, looked up): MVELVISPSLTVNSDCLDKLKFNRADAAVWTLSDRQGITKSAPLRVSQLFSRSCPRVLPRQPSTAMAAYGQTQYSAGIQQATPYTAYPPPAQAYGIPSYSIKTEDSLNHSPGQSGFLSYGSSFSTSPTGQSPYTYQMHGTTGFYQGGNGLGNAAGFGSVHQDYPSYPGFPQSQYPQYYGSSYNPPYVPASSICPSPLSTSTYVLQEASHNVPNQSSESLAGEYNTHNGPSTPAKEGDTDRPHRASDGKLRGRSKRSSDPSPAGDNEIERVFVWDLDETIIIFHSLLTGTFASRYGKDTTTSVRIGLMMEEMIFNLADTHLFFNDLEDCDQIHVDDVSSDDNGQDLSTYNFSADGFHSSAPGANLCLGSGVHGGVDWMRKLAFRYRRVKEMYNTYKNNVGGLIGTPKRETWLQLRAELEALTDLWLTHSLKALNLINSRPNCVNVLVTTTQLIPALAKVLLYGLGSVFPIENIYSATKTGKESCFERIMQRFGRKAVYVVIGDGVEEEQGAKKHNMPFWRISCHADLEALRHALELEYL
Target sequence (Q15475 whole entry, looked up): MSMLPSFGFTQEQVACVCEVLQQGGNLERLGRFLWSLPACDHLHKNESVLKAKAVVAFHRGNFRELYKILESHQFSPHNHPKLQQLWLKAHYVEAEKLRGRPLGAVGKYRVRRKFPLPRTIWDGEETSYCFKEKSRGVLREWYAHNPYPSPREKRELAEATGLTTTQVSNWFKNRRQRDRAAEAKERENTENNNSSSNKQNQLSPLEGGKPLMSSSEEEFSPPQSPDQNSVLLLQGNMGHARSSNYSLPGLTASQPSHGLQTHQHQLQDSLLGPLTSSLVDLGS
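Compounds are tested against tagged Six1 and Eya2 proteins bridged by glutathione donor and nickel acceptor beads; after a one-hour incubation at 37 °C without light, AlphaScreen emission is recorded.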
D2 ag – human D2 receptor agonism in beta-arrestin assay; AID 624465; activation, % (no concentration beside the values); hit rate 0.084% among 360,000; DiscoveRx PathHunter D2 beta-arrestin, luminescence, 90 min; 100% = 57 uM dopamine signal; in the data active = activation above about 40%; inconclusive = about 15% to 40%; inactive = below about 15%; note: compound concentration not given in the record; the text of the record calls up to 30% inactive
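DiscoveRx PathHunter D2 beta-arrestin cells (2,100/well) attached overnight, then compound-stimulated 90 min at 37 C in HBSS/10 mM HEPES/0.1% Tween-20 buffer; beta-galactosidase complementation read by luminescence after 1 h at ambient temperature. Dopamine 57 uM final (EC100) as control.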
TRPML1 agonist – activates the human TRPML1 channel; Q9GZU1; TRPML1-expressing cells, Ca2+ dye fluorescence, FDSS; host cell line not named in the record; reference of the full effect not given here; activation, % (test concentration not listed); hit rate 0.12% among 410,000; in the data active = activation above about 50%; inconclusive = about 30% to 50%; inactive = below about 30%; note: 0% is about no effect; the text of the record puts the active cut at 80%
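TRPML1-DL cells, Tet-induced overnight (~16 h, 37 degrees C), loaded 45-90 min at room temperature with Ca8 no-wash calcium dye plus quencher. FDSS fluorescence: 10 s baseline, compound pin-transfer, 110 s agonist read, then EC80 54-4 (4uM final) and 110 s antagonist read.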
Numbers without * were called inactive; ? = inconclusive; · = not tested or not shown; [ ] = another dose, or the depositor's remark.

SMILES	D2 PAM	PINK1 expr mod	CtBP-E1A inh	Six1-Eya2 blk	D2 ag	TRPML1 agonist
CSc1ccccc1NC(=O)CN(C)C(=O)c1ccc(-n2cccn2)cc1	-8	1.7%	·	2	3.6	-0.5
CCS(=O)(=O)N1CCC(C(=O)Nc2cc([N+](=O)[O-])ccc2C)CC1	-18	0.0%	·	8	-1.6	0.3
Cc1ccccc1-c1n[nH]nc1C1=CC(=O)CC(C)(C)C1	5	2.7%	2	2	-6.9	-0.4
COc1ccc(NC(=O)CN(C)C2CCCCC2)cc1Cl	-16	0.4%	-1	-4	-1.9	-0.3
COc1cccc2c(=O)n(CC(=O)Nc3cccc(F)c3)ccc12	-8	2.6%	3	8	-6.3	-0.2
CCOC(=O)c1[nH]c2ccccc2c1NC(=S)Nc1cc(C)ccc1C	27	-0.3%	-3	-4	-4.4	-0.4
O=C(O)C1CCCN1c1ncnc2c1oc1ccccc12 (configuration not stated)	-10	14%[38.3 µM]	2	-1	-2.5	0.2
Cc1ccc(C)c(N2CCN(S(=O)(=O)c3ccc4c(c3)C(C)(C)C(=O)N4C)CC2)c1	-10	0.8%	-12	-4	2.5	1.5
CCCc1ccc(-c2cc(C(=O)NC3=NCCS3)c3ccccc3n2)cc1	12	8.6%	-16	2	-2.8	-0.2
O=C(CSc1nnc2ccccn12)NC(=O)Cc1ccccc1	-10	0.5%	7	2	-2.0	0.1
CC(=O)NC1C(OCCOc2ccc(Cl)cc2C)OC(CO)C(O)C1O (configuration not stated)	-8	-0.1%	12	7	5.6	1.2
CCCn1c(SCC(=O)Nc2nnc(CC)s2)nnc1-c1ccco1	29	0.9%	0	0	-1.1	-0.7
O=C(/C=C/c1cccs1)c1ccc(NC(=O)c2cccc(Br)c2)cc1	-2	12%	0	-1	-2.0	0.5
CCC(C)(C)NC(=O)CN(C(=O)CCC(=O)Nc1nccs1)c1ccc2c(c1)OCCO2	-6	0.8%	2	14	-2.3	0.3
CCCc1c(O)c2ccccc2n(-c2ccccc2)c1=O	1	0.8%	-2	10	-1.7	-0.5
CCCNC(=O)c1noc2c1CCc1cc(OC)ccc1-2	-17	1.6%	0	3	-3.6	·
COC(=O)c1ccc(C2CC(=O)Nc3cc(OC)c(OC)c(OC)c32)cc1 (configuration not stated)	-7	-2.1%	-1	10	4.2	1.2
COC(=O)c1ccc(OC(=O)c2ccco2)cc1	6	-0.3%	2	?	-0.9	0.2
O=C(N/N=C/c1cccc(O)c1)c1ccccc1O	-9	-0.4%	-14	-1	-1.0	·
Cc1nc(C(=O)NC2CC2)sc1C1(C)CC(c2ccccc2)=NO1 (configuration not stated)	-5	0.8%	2	2	1.8	-0.7
CNC(=O)CO/N=C/c1ccc(N(C)C)cc1	1	2.8%	9	5	0.5	0.3
Cc1ccc(CNc2nnnn2C)cc1	2	1.9%	·	2	4.0	·
CCc1nc(C)cn1S(=O)(=O)c1cc(C)c(OC)c(C)c1C	4	-0.1%[38.3 µM]	-5	-1	-0.5	-0.6
COc1ccc(CC(=O)Nc2ccc(-c3cn4cccc(C)c4n3)cc2)cc1OC	15	0.3%	?	-23	0.4	-0.6
O=C(CSc1nnc(-c2ccco2)n1Cc1ccccc1)OC1CCCCC1	-9	1.9%	?	-16	-0.6	2.2

Part of the list above in another layout.
smiles | D2 PAM | PINK1 expr mod | CtBP-E1A inh | Six1-Eya2 blk | D2 ag | TRPML1 agonist
O=C(N/N=C/c1cccc(O)c1)c1ccccc1O | -9 | -0.4% | -14 | -1 | -1.0 | ·
Cc1nc(C(=O)NC2CC2)sc1C1(C)CC(c2ccccc2)=NO1 (configuration not stated) | -5 | 0.8% | 2 | 2 | 1.8 | -0.7
CNC(=O)CO/N=C/c1ccc(N(C)C)cc1 | 1 | 2.8% | 9 | 5 | 0.5 | 0.3
Cc1ccc(CNc2nnnn2C)cc1 | 2 | 1.9% | · | 2 | 4.0 | ·
CCc1nc(C)cn1S(=O)(=O)c1cc(C)c(OC)c(C)c1C | 4 | -0.1%[38.3 µM] | -5 | -1 | -0.5 | -0.6
COc1ccc(CC(=O)Nc2ccc(-c3cn4cccc(C)c4n3)cc2)cc1OC | 15 | 0.3% | ? | -23 | 0.4 | -0.6
O=C(CSc1nnc(-c2ccco2)n1Cc1ccccc1)OC1CCCCC1 | -9 | 1.9% | ? | -16 | -0.6 | 2.2

Quoted from the listing.
TRPML1 agonist result of COc1cccc2c(=O)n(CC(=O)Nc3cccc(F)c3)ccc12 = -0.2
D2 PAM result of O=C(N/N=C/c1cccc(O)c1)c1ccccc1O = -9

Further records:
SMILES	D2 PAM	PINK1 expr mod	CtBP-E1A inh	Six1-Eya2 blk	D2 ag	TRPML1 agonist
O=c1cc(-c2cccc(Br)c2)nc(-c2ccccc2F)o1	-18	-0.3%	14	12	-1.3	0.1
O=C(COC(=O)CCc1ccccc1)Nc1ncc(Cl)cc1Cl	4	-1.0%[38.3 µM]	-3	2	-1.3	1.0
CSCC[C@H](NC(=O)[C@H](Cc1ccccc1)n1c(=O)[nH]c2ccccc2c1=O)C(=O)N1CCC(C(=O)O)CC1	-24	0.9%	4	1	-1.5	·
Cc1ccccc1-c1nc2sc(C)c(C)c2c(=O)o1	-2	2.3%	16	-3	-1.6	2.0
CCOC(=O)c1cnc(SCCN2CCOCC2)nc1N	-8	-0.2%	6	5	-0.2	-0.5
CCOc1ccc(NC(=O)c2ccc(N3CC4CC(C3)c3cccc(=O)n3C4)c(NC(=O)c3ccncc3)c2)cc1 (configuration not stated)	-10	-0.4%	2	0	-2.5	-0.7
Cc1ccc(C)c(S(=O)(=O)C(C#N)c2nc3ccccc3nc2N2CCOCC2)c1 (configuration not stated)	-10	?	-2	0	1.9	-0.6
O=C(CSc1nnnn1C1CCCCC1)Nc1ccc2c(c1)OCO2	-2	0.3%[38.3 µM]	-10	-3	-3.6	6.4
O=C1c2ccccc2C(=O)N1CCOc1ccccc1Br	-4	0.6%	3	16	-6.9	2.6
COc1ccccc1NC(=O)c1nn(-c2ccc(Cl)cc2)ccc1=O	-11	4.2%	-2	-1	0.2	0.0
CN(Cc1ccccc1)C(=O)c1csc([C@H]2C[C@H](O)[C@@H](CO)O2)n1	-3	0.7%	8	4	-3.5	-0.3
COc1ccc(CN2C(=O)c3cccnc3C2=O)cc1S(=O)(=O)N(C)c1ccc(C)cc1	1	-0.9%	-9	-6	-1.4	0.0
COC(=O)c1[nH]c2cc(OC)c(OC)cc2c1/C=N/Nc1ccccc1	12	10%	·	-5	?	-0.7
O=C(c1cc2cc(Br)ccc2oc1=O)N1CCN(c2ccccn2)CC1	-10	4.4%[38.3 µM]	-13	0	-3.5	0.1
CCOc1c2ccc(C(=O)NCCCCc3ccccc3)cc2nn1C	-3	-0.4%	3	4	-3.6	-0.7
CCn1c(SCC(=O)Nc2ccc3c(c2)OCCO3)nnc1-c1ccco1	-23	-0.2%[38.3 µM]	7	-2	-3.0	1.0
Cc1cc(C)n(-c2nc3ccccc3n3cnnc23)n1	0	3.7%[38.3 µM]	-20	-16	-3.7	0.2
N#Cc1ccc(OCC(=O)Nc2nc(-c3ccccn3)cs2)cc1	-4	4.9%	?	-90*	3.5	-0.4
Cc1ccc(-c2nc3ccc(Cl)cn3c2Cc2ccccc2)cc1	-2	25%	3	2	-9.7	-0.7
O=C(/C=C/N1CCOCC1)c1cc2ccccc2o1	-1	5.8%	0	-7	-5.1	-0.1
O=C(COC(=O)Cc1c[nH]c2ccccc12)Nc1ccccc1	4	-0.5%	12	1	-0.2	0.5
COc1ccc(CCNC(=O)Cn2nnc(-c3ccccc3F)n2)cc1OC	-2	·	12	3	0.8	-0.3
CCOC(=O)c1c(C(F)(F)C(F)(F)C(F)(F)C(F)(F)F)n[nH]c1C	9	2.8%	16	2	-1.0	0.1
O=[N+]([O-])c1ccc(C(=S)N2CCCC2)cc1	-37	-0.7%	-22	-12	5.3	-0.3
Cc1ccc(-n2cnc3ncnc(-c4ccccc4)c32)cc1	4	0.6%	0	4	8.2	-0.3
Cn1cnnc1SCCOc1ccc(Cl)cc1	-4	2.9%	-16	-2	-2.6	-0.5

Screening data deposited in PubChem BioAssay by National Center for Advancing Translational Sciences (NCATS).
